CapD inh – inhibitors of Bacillus anthracis CapD enzyme | purified CapD enzyme, fluorescence intensity read-out; stronger effect = lower value; some hits fall short of the stated cut | 140,000 tested, 0.23% active | z-score (concentration not given with the values);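 active means z-score under -4 in either of two replicates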;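 further: stock transfer was 100 nL into about 40 µL; score is relative to mean and spread of the plate; one replicate is shown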
AID504770 – growth inhibitors of E. coli YBA685 in a screen for V. cholerae RctB (chromosome II replication) inhibitors; E. coli YBA685 rctB-dependent plasmid, OD600 growth, 3 h; stronger effect = lower value; z-score (no concentration beside the values); 130,000 tested, 0.27% active; AID 504770;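 active means z-score under -2 on both plates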;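 further: wells of about 30 µL received 100 nL stock; score is relative to mean and SD of the test wells; the first replicate is given; strong numbers were not always called active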
Starred values were filed as active, the others as inactive; · = not tested or not shown; & = joins results of further samples.

Order of results – CapD inh, AID504770
COCc1c(C(=O)Nc2cc(C(F)(F)F)ccc2-n2cncn2)oc2ccccc12
→ ·, -0.3
Cc1ccc(NC(=O)N2CCC(n3nnc(-c4cccs4)n3)CC2)cc1
→ -0.03, 0.6
COc1cc(Cl)c(C)cc1NC(=O)CCc1nc2ccccc2[nH]1
→ -0.69, -1.1
CC1CCN(c2nc3nonc3nc2Nc2ccc3c(c2)OCO3)CC1
→ -0.29, -0.3
CCOC(=O)c1cc(OCC(=O)NC(C)C(C)C)cc(C(=O)OCC)c1 (stereo not drawn)
→ ·, -0.45
Nc1[nH]c(=O)[nH]c(=O)c1N=Nc1ccc(SC(F)F)cc1
→ ·, -1.4
Clc1ccccc1-c1nnc(-c2ccccc2CN2CCN(c3ccccc3)CC2)o1
→ -1.1, 0
Cc1cc(C)nc(OC(Cc2nc3ccccc3o2)c2ccccc2)n1 (stereo not drawn)
→ 0.02, ·
CC(C(=O)Nc1sc2c(c1C#N)CCCCC2)N1C(=O)c2ccccc2C1=O (stereo not drawn)
→ -0.6, -0.6
Cn1nnnc1SCC1=C(C(=O)O)N2C(=O)[C@@H](NC(=O)[C@H](O)c3ccccc3)[C@H]2SC1
→ 0.01, ·

Remaining list, next part:
Order of results – CapD inh, AID504770
CC1CCC(NC(=O)CCC2=NS(=O)(=O)c3ccccc3N2)CC1 (stereo not drawn)
→ 0.005, 0.3
COc1ccc(NC(=O)c2cc(C)no2)cc1
→ -0.92, -0.9
COc1ccc(Cc2nnc3n2N=C(c2ccc(CNC(C)=O)o2)CS3)cc1
→ ·, 0.8
Cn1c(SCc2ccccc2)nc(N)cc1=O
→ -0.29, -0.65
CCCCCOc1ccc(N2C(=O)/C(=C/c3ccc(OC)c(OC)c3)N=C2c2ccc(Cl)cc2)cc1
→ -0.58, ·
NNC(=O)Cc1cccc2ccccc12
→ -0.33, -0.85
O=C(CSc1nnc(Cn2nnc3ccccc32)o1)N1c2ccccc2CCc2ccccc21
→ ·, -0.2
CCOc1ccc(S(=O)(=O)N/N=C(\C)C2CCCCC2)cc1
→ ·, -0.3
CCOc1ccccc1N1CC(C(=O)O)CC1=O (stereo not drawn)
→ -0.81, -0.75
CCOC(=O)N/N=C/c1ccco1
→ -0.04, ·

The results go on:
Order of results – CapD inh, AID504770
O=C(CN1C(=O)/C(=C\c2cccc(Br)c2)SC1=S)Nc1ccccc1[N+](=O)[O-]
→ 0.22, ·
Cn1c(-c2cccs2)c(CNCc2ccccc2)c2ccccc21
→ 12, -0.5
CCCC1NC(=S)N(c2ccccc2)C1=O (stereo not drawn)
→ 0.095, -1
CCOC(=O)c1ccccc1OCc1cc(C2Nc3ccccc3C(=O)N2c2ccc(F)cc2)ccc1OC (stereo not drawn)
→ 35, ·
O=C(c1cccn1-c1nnc(N2CCCCC2)s1)N1CCCC1
→ -1.5, 1.6
CCOC(=O)c1c(C)n(-c2ccccc2)c2c1cc(OC(=O)c1cccc([N+](=O)[O-])c1)c1ccccc12
→ -0.14, ·
O=C(CSc1nc2ccccc2c(=O)n1-c1cccc(S(=O)(=O)N2CCCC2)c1)c1ccc(O)cc1O
→ ·, -0.95
Cc1ccc(C(=O)CSc2nc3cc(C(F)(F)F)ccc3n2C(C)C)cc1
→ 8.8, 0.15
CN1CCCN=C1/C=C/c1cccs1
→ -1.8&-0.24, -0.2
CN(CCO)c1ccc(C#N)cn1
→ -0.21, 1.2

Reformatted with each value named: part of the list above.
CCOC(=O)c1c(C)n(-c2ccccc2)c2c1cc(OC(=O)c1cccc([N+](=O)[O-])c1)c1ccccc12
  CapD inh: -0.14
  AID504770: ·

O=C(CSc1nc2ccccc2c(=O)n1-c1cccc(S(=O)(=O)N2CCCC2)c1)c1ccc(O)cc1O
  CapD inh: ·
  AID504770: -0.95

Cc1ccc(C(=O)CSc2nc3cc(C(F)(F)F)ccc3n2C(C)C)cc1
  CapD inh: 8.8
  AID504770: 0.15

CN1CCCN=C1/C=C/c1cccs1
  CapD inh: -1.8&-0.24
  AID504770: -0.2

Continuation:
Order of results – CapD inh, AID504770
Brc1ccc2c(c1)c(-c1ccccc1)cc1nnc(-c3ccccc3)n12
→ 0.1, ·
O=[N+]([O-])c1cccc(C2(O)C[N+]3=C(CCCCC3)N2c2ccccc2)c1 (stereo not drawn)
→ -0.99, ·
COc1ccc(N2C(=O)C(CN3CCN(C)CC3)C2c2ccccc2)cc1 (stereo not drawn)
→ 0.53, 0.1
O=C(O/N=C1/CCCc2nonc21)C(F)(F)F
→ -0.01, 0.9
Cc1sc2ncnc(Sc3ncnc4sc(C)c(C)c34)c2c1C
→ -0.21, 1.6
CCN(C(=O)Cn1ncc(Cl)c(Cl)c1=O)C1CCS(=O)(=O)C1 (stereo not drawn)
→ ·, -0.4
CN1/C(=C/C=C/c2oc3ccccc3[n+]2C)Oc2ccccc21
→ -0.63, -1.1
N#Cc1ccccc1S(=O)(=O)N1CCCC(CO)C1 (stereo not drawn)
→ 0.32, ·
COc1ccc(C2C(C(=O)Nc3ccccc3F)=C(C)NC3=C2C(=O)CC(c2ccccc2)C3)cc1 (stereo not drawn)
→ 35, ·
CCOC(=O)c1sc(NC(=S)NCc2cc(C)n(C)n2)c(C(=O)OCC)c1C
→ 0.065, 0.35

The list continues:
Order of results – CapD inh, AID504770
COc1ccc(-c2cc(C(=O)O)c3c(C)[nH]nc3n2)cc1
→ 89, -0.45
COC(=O)CNc1ccccc1OC
→ -0.19, -0.4
CCN1CCC(O)(C#Cc2ccccc2)CC1
→ -0.57, 0.2
Cc1nc(SCc2ccccc2)n[nH]1
→ -0.02, -0.95
CCn1c(CC(=O)Nc2cccc(OC)c2)nnc1SCC(=O)c1ccccc1
→ ·, 1.1
COc1ccccc1NC(=O)c1c(NC(=O)c2ccccc2Cl)sc2c1CCCCC2
→ 0.22, ·
O=C(Nc1ccccc1)OC(CSc1ccccn1)CSc1ccccn1
→ 0.075, 0.2
COCCCNS(=O)(=O)c1ccc(C#N)cc1
→ 0.3, ·
O=C(Nc1cc(C(F)(F)F)cc(C(F)(F)F)c1)C(=S)NCCNc1cccc2ccccc12
→ -1.1, 0.25
CN(C)/C=C/c1snc(SCc2c(Cl)cccc2Cl)c1C#N
→ -1.1, ·

Next structures follow:
Order of results – CapD inh, AID504770
COc1ccc(-c2noc(CC(=O)N(C)c3ccc(F)cc3)n2)cc1
→ -0.25, 0.15
Cc1noc(C)c1C(=O)O/N=C(\N)Cc1ccc(-c2csnn2)cc1
→ 0.52, 0.55
Cc1n[nH]c(=O)nc1NCCCN(C)C
→ -0.29, -0.75
FC(F)(F)c1ccc(-n2nnnc2-c2ccno2)cc1
→ 0.075, 0.1
CC1CCc2onc(C(=O)NC3=NN(c4ccccc4)CC3)c2C1 (stereo not drawn)
→ -0.11, 1.2
O=C(COc1ccccc1)N1CCN(Cc2ccccn2)CC1
→ 0.36, -0.45
COc1ccc(Nc2nc(C)nc3sc4c(c23)CCCC4)c(OC)c1
→ 0.52, ·
COc1cc(-n2c(C)nc3cc(C(=O)NCCC4=CCCCC4)ccc32)cc(OC)c1OC
→ -0.11, ·
CCN(CC(=O)NCc1cccs1)C(=O)c1cccc(S(=O)(=O)N(CC)CC)c1
→ ·, 0.15
Cc1ccc2cc3cc(C(=O)NCCC4=CCCCC4)oc3nc2c1
→ 2.1, 0.15

Following part
Order of results – CapD inh, AID504770
NS(=O)(=O)c1cc(C(=O)O)cs1
→ ·, -0.3
COc1ccc(N2C(C(C)=O)=NN(c3ccccc3)C2c2cccc(OCc3ccc(Cl)cc3)c2)cc1 (stereo not drawn)
→ 23, ·
Cc1ccc(C)n1-c1ccsc1-c1cc2nccc(C(F)(F)F)n2n1
→ -0.41, ·
N#CCCN(Cc1cccnc1)C(=S)NC1CCCCC1
→ ·, -0.8
CC1(C)CC2(CC(C)(C)N1)OC(=O)N(CCN1C(=O)OC3(CC(C)(C)NC(C)(C)C3)C1(C)O)C2(C)O (stereo not drawn)
→ 0, ·
COc1ccc(C(=O)N(Cc2ccccc2)c2ccccn2)cc1
→ 0.14, 0
N#CC1C(c2ccc3ccccc3n2)=CN(Cc2ccccc2)c2ccccc21 (stereo not drawn)
→ 86, ·
OC(COCC1COc2ccccc2O1)C[N+]1(Cc2ccccc2)CCCC1 (stereo not drawn)
→ -0.12, -0.35
O=C(O)CCCC(=O)Nc1nncs1
→ -0.07, -0.85
CCC(C(=O)Nc1cccc(OC)c1)N1C(=O)CCn2nccc21 (stereo not drawn)
→ 0.74, 0.05

The list continues.
Order of results – CapD inh, AID504770
O=c1cccc2n1CC1CC2CN(C(=S)NC2Cc3ccccc3C2)C1 (stereo not drawn)
→ ·, -0.15
CCCCn1c(=O)nc2n(-c3ccc([N+](=O)[O-])cc3)c3ccccc3cc-2c1=O
→ -0.62, ·
O=C(Nc1ccc(Cl)cc1)OC1CN(C(c2ccccc2)c2ccccc2)C1
→ -0.3, -1.1
CC(C)n1c(SCC(=O)O)nc2ccccc21
→ -0.41, -0.7
COC(=O)CNC(=O)c1ccc(C)c(C)c1
→ ·, 0.55
COc1cccc(/C=C2/CC(C(C)(C)C)C/C(=C\c3cccc(OC)c3OC)C2=O)c1OC (stereo not drawn)
→ -9.2*, 0.35
CCOc1ccc(-c2c(C#N)c(N)nc3sc(C(=O)Nc4ccc(Br)cc4)c(N)c23)cc1
→ 0.27, ·
O=C(Nc1cccnc1Sc1ccc(Cl)cc1)c1ccc(C(F)(F)F)cc1
→ -0.44, 0.2
Cc1ccc2cc(C#N)c(SCC(=O)Nc3ccccc3N3CCOCC3)nc2c1C
→ ·, -0.65
O=C(Cn1c(=O)n(CCCS(=O)(=O)C2CCCCC2)c(=O)c2ccccc21)Nc1ccc(F)cc1
→ 0.5, 1.4

More entries follow.
Order of results – CapD inh, AID504770
CCOC(=O)c1c(C)[nH]c(C2=NNC(=NC)SC2)c1C
→ ·, 0.4
COc1ccc(C2Nc3ccccc3C(=O)N2c2cccc3ccccc23)cc1CN1C(=O)c2ccccc2C1=O (stereo not drawn)
→ 2.1, ·
c1csc(-c2nnc(SCC3COc4ccccc4O3)n2CC2CCCO2)c1 (stereo not drawn)
→ ·, 1.5
O=C(Nn1c(=O)[nH]c2ccccc2c1=O)c1ccco1
→ 6, -0.4
COc1ccc(/C=C2/C(=O)N(c3cccc(Cl)c3)N=C2C)cc1
→ -0.38, ·
Cc1cn2c(nc1=O)O[C@@H]1C[C@H]2O[C@@H]1CO
→ 0.33, 1.1
CC(=O)Nc1sc2c(c1C(c1ccccn1)N1CCN(CCO)CC1)CCCC2 (stereo not drawn)
→ 0.22, -0.45
O=C(O)c1ccc(N2CCCCC2)cc1
→ -0.065, -0.95
Cc1ccc(C)c(-n2c(SCC(=O)NCC(C)C)nnc2-c2cccnc2)c1
→ ·, 1.5
C=CCNc1ncnc2c1c(-c1ccccc1)cn2-c1cccc(Cl)c1
→ 0.17, ·

Following part
Order of results – CapD inh, AID504770
Brc1ccc2nc(N3CCNCC3)nc(-c3ccccc3)c2c1
→ 0.88, ·
CC(C)(C)n1nc2c(c1NC(=O)c1ccc(S(=O)(=O)N3CCCCC3)cc1)CS(=O)(=O)C2
→ -0.29, ·
COCCOC(=O)C1=C(C)NC(=O)NC1c1cn(-c2ccccc2)nc1-c1ccc(Br)cc1 (stereo not drawn)
→ 0.24, ·
COc1ccc(C(=O)c2ccccc2O)c(O)c1
→ 0.26, 0.15
CSc1ccc(N=Nc2c(C)[nH]n(C)c2=O)cc1
→ -1.1, ·
N#CCC(=O)c1sccc1-n1cccc1
→ -1.5, -0.3
O=C(c1ccc(C(F)(F)F)cc1)n1nccc1-c1cc(-c2ccccc2)no1
→ 0.75, 0.5
Cc1ccccc1-c1ocnc1C(=O)Nc1cccnc1
→ ·, 1.5
O=C(NC(=S)Nc1cccc(O)c1)C1CCCCC1
→ ·, 0.55
COc1cc(/C=C/C(=O)Nc2c3c(nn2C(C)(C)C)CSC3)cc(OC)c1OC
→ ·, 0

Additional entries.
Order of results – CapD inh, AID504770
Cn1c(Cc2cccs2)nnc1SCc1ncc(-c2ccccc2)o1
→ ·, -0.4
O=C(Nc1ccccc1)OC1CS(=O)(=O)CC1N1CCOCC1 (stereo not drawn)
→ -0.39, 0.05
CCCOc1ccc(C(=O)N2CCOCC2)cc1OC
→ -0.095, -0.9
CCC(C)NC(=O)c1onc(C)c1Cl (stereo not drawn)
→ -0.44, -0.25
O=C(CN1CCCCC1)NCC1(c2ccccc2)CCCC1
→ -0.08, ·
CCCN(CCC)S(=O)(=O)c1ccc(C(=O)NNC(=O)c2ccc(-n3nc(-c4ccccc4)cc3-c3ccccc3)cc2)cc1
→ 4.5, ·
COCCNc1nnc(SCc2nnc(-c3ccc(F)cc3)o2)s1
→ ·, -0.55
CC1CCCCN1C(=O)NC1(C(F)(F)F)Oc2ccccc2O1 (stereo not drawn)
→ -1.8, ·
Cc1ccc(O)c(C2=Nc3ccccc3N=C(c3ccccc3)C2)c1
→ -0.97, ·
CC1=C(C(=O)Nc2ccccc2)C(c2ccc([N+](=O)[O-])cc2)n2ncnc2N1 (stereo not drawn)
→ -0.53, ·

Going on with the list:
Order of results – CapD inh, AID504770
CCCCNC(=O)C1Cc2ccccc2CN1S(=O)(=O)c1cccs1 (stereo not drawn)
→ ·, 3
CCCN(CCC)C(=O)c1cccc(S(=O)(=O)N2CC(C)CC(C)C2)c1 (stereo not drawn)
→ -0.42, -0.6
COc1ccc(N2CCN(CCCNC(=O)CCCn3c(=S)[nH]c4ccc(Br)cc4c3=O)CC2)cc1
→ -0.58, ·
CC(C)/C=C1\CCCC\C1=N/n1cnnc1
→ -0.84, -0.3
O=C(NCCCN1CCOCC1)c1cc2nc3c(c(C(F)(F)F)n2n1)CCc1ccccc1-3
→ -0.88, ·
CCOC(=O)c1oc2ccc(Br)cc2c1COC(=O)CN1C(=O)C2CC=CCC2C1=O (stereo not drawn)
→ ·, -0.9
